Bioassay records from PubChem BioAssay.
MT1-MMP act inh = blocks activation of human MT1-MMP; P50281; HT1080 RFP-PRO-GFP cells, GFP/RFP ratio fluorescence, overnight; percent of plate control window, DMSO zero; GFP/RFP ratio change, % at 20 µM; actives 0.061% (n = 360,000);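 active = GFP/RFP ratio change of at least 30% with cell ATP level not reduced by more than half and red fluorescence within 50% of control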; note: strong numbers were not always called active
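Material: RFP-PRO-GFP reporter HT1080 cells. Dosing: single-point 20 µM compound, 1% DMSO. Controls: DMSO and RFP-L50D-GFP cell wells. Timing: cells overnight before dosing, compound overnight, 37 °C, 5% CO2. Measure: GFP/RFP fluorescence ratio.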
Rce1 inh = blocks yeast Ras-converting enzyme; Q03530; yeast membranes, quenched prenylated peptide cleavage fluorescence; calls only; actives 0.27% (n = 290,000); AID 2563;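 active = fall in fluorescence gain of 50% or more versus controls, with final raw signal at or below 3038400; inconclusive = same 50% fall but final raw signal above 3038400; inactive = fall in fluorescence gain under 50%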;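 note: plate controls were neutral control wells for no effect and wells lacking membranes for full effect; tested at 10 µM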
Target sequence (Q03530 whole entry, looked up): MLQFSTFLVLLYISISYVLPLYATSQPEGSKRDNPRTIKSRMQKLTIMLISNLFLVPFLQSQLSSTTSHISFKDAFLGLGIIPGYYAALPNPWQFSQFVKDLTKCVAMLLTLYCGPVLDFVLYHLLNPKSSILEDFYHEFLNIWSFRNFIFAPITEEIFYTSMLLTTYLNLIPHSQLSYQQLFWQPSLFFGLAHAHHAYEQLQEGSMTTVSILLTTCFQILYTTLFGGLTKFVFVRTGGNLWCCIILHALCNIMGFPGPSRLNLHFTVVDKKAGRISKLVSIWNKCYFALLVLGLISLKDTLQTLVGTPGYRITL
PABP polyA inh = PABP-poly(A) binding inhibition; AID 2014; P11940; PABP-poly(A) RNA binding, fluorescence polarization; inhibition, % at 35 µM; actives 1% (n = 290,000);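 active = 50% or more with normal probe brightness, or confirmed in later tests; inconclusive = above 50% with abnormal brightness, or retests that disagree; inactive = below 50% or failed in later tests; about a fifth of its hits are not listed in these tables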;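 note: calls also rest on retests at 20 µM and on dose response follow-up; controls were probe without protein and protein plus probe with vehicle; some compounds called inactive have numbers as strong as hits; many hits fall short of the cut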
Target sequence (P11940 whole entry, looked up): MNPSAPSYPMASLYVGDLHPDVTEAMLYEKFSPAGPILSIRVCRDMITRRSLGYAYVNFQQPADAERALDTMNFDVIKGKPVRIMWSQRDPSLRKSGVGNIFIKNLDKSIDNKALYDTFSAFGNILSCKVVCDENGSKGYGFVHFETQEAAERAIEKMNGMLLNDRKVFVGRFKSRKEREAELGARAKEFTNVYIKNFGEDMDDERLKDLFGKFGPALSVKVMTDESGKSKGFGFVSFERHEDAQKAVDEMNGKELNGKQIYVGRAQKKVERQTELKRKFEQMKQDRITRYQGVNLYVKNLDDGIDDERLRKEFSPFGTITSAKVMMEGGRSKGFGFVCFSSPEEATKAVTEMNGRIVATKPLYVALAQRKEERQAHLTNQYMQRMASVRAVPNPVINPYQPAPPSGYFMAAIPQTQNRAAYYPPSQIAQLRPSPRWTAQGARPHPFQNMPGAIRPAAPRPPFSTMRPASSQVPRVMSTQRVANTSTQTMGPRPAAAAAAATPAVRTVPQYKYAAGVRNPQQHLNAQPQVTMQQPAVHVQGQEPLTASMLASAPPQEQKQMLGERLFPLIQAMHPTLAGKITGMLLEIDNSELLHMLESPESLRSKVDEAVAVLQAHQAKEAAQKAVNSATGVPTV
eIF4H inh = inhibitors of RNA binding by human eIF4H; eIF4H fluorescence polarization binding assay; inhibition, % at 35 µM; actives 0.94% (n = 290,000); AID 2012;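 active = 50% or more with normal probe brightness, or confirmed in later tests; inconclusive = above 50% with abnormal brightness, or retests that disagree; inactive = below 50% or failed in later tests; about a fifth of its hits are not listed in these tables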;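 note: calls also rest on retests at 20 µM and on dose response follow-up; 0% = protein and probe with vehicle and 100% = probe without protein; strong numbers were not always called active; many hits fall short of the cut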
Env fusion inh = blocks HIV Env-driven cell-cell fusion; HeLa-JRFL Env/CEM21 cell fusion, luciferase; inhibition, % at 12.3 µM; actives 1.1% (n = 360,000);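 active = mean replicate inhibition score of at least 50 and every replicate individually at or above 50; inconclusive = only one of the two criteria met; inactive = mean below 50 and not all replicates reaching 50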;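 note: 0% = plate neutral controls and 100% = maraviroc near 300 nM; one replicate is shown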
Yeast UUG start = alters start codon recognition fidelity in yeast | S. cerevisiae UUG-firefly luciferase reporter, luminescence/redox ratio | activity score, % at 18.7 µM | actives 0.13% (n = 350,000);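 active = replicate mean at a twofold rise or more, about +100% in these data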;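 note: firefly luciferase made from a UUG start codon reports start codon fidelity; reporter light over untreated wells divided by growth signal over untreated wells; some hits fall short of that in this replicate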
CSC inhib = cancer stem cell inhibition; actives 1.1% (n = 300,000); inhibition, % at 7.5 µM; AID 2717; cancer stem cell-like cells viability, luminescence;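 active = mean at 75% or more and at least half the replicates too; inconclusive = mean and replicates disagree; tested in HMLE shEcad cells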;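 note: 0% = median of negative and 100% = median of positive control wells; the first replicate is given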
eIF4H inh retest = further read-out of eIF4H inh, marked with its call; inhibition, %; compound at 20 µM; confirmation average;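 mean of two retest wells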
PABP polyA inh retest = further read-out of PABP polyA inh, marked with its call; inhibition, %; compound at 20 µM; confirmation repeats;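 mean of two retest wells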
MT1-MMP act inh RFP = recorded beside MT1-MMP act inh, whose call it bears; RFP signal change, %; measured here: RFP expression control read;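 0 = vehicle wells; hits needed this value within 50% of zero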
* = called active by the depositor; i = inactive; ? = inconclusive; . = not tested or not shown; & = joins results of further samples. An excerpt; rates above refer to the full screens.

The opening 3 entries, to show the layout:
SMILES	MT1-MMP act inh	MT1-MMP act inh RFP	Rce1 inh	PABP polyA inh	eIF4H inh	Env fusion inh	Yeast UUG start	CSC inhib	others
COCCOc1ccc(C(F)(F)F)cc1NC(=O)c1ccccc1	0	1	i	55	11	10	.	.	eIF4H inh retest=-11;PABP polyA inh retest=19
COc1ccc(S(=O)(=O)NC(C)C(=O)NC2CC2)cc1C (stereo not drawn)	-3	-1	i	4	3	10	-13	4
COc1ccc(CCNC(=O)CCC(=O)NC2CCCC(C)C2C)cc1OC (stereo not drawn)	2	-2	i	-7	4	-20	-7	13

The whole of this part, repeating the preview:
SMILES	MT1-MMP act inh	MT1-MMP act inh RFP	Rce1 inh	PABP polyA inh	eIF4H inh	Env fusion inh	Yeast UUG start	CSC inhib	others
COCCOc1ccc(C(F)(F)F)cc1NC(=O)c1ccccc1	0	1	i	55	11	10	.	.	eIF4H inh retest=-11;PABP polyA inh retest=19
COc1ccc(S(=O)(=O)NC(C)C(=O)NC2CC2)cc1C (stereo not drawn)	-3	-1	i	4	3	10	-13	4
COc1ccc(CCNC(=O)CCC(=O)NC2CCCC(C)C2C)cc1OC (stereo not drawn)	2	-2	i	-7	4	-20	-7	13
COc1ccc(NC(=O)CSc2nnc(-c3ccncc3)n2CC2CCCO2)c(OC)c1 (stereo not drawn)	2	4	.	8	-2	-56	-15	7
Cc1cccc(NC(=O)C2CCCN(c3ncnc4c3nc3n4CCCCC3)C2)n1 (stereo not drawn)	3	-4	i	-10	-8	-8	5	45
CCOC(=O)/C(C#N)=N/Nc1ccccc1C#N	1	-4	i	-8	0	-2	-21	-9
CCc1ccc(C2NC(=O)c3ccccc3O2)cc1 (stereo not drawn)	3	-1	i	1	-8	-5	-20	-1
COc1cccc2c(=O)n(CC(=O)Nc3ccccc3F)ccc12	-1	0	i	12*	?	10	-11	-3	PABP polyA inh retest=124*
O=C(Nc1nccs1)C1CCCN1S(=O)(=O)c1ccc(F)cc1 (stereo not drawn)	6	1	i	-6	13	.	8	6
CC1CN(S(=O)(=O)c2cccc(C(=O)NCCc3ccc(S(N)(=O)=O)cc3)c2)CC(C)O1 (stereo not drawn)	1	-4	.	.	.	13	-1	-18
c1ccc2c3nnc4n(c-3nc2c1)CCCS4	0	-2	i	2	-2	.	-25	-13
Cc1cc(C)n2nc(C(=O)OCC(=O)Nc3ccc4c(c3)OCO4)nc2n1	-5	-2	i	6	-1	.	-11	-5
CCc1ccccc1NC(=O)CN(C)C(=O)CSc1nn(-c2ccccc2)c(=S)s1	1	5	i	-1	5	6	.	1
COC(=O)c1cc(S(=O)(=O)N2CCCC(C)C2)c[nH]1 (stereo not drawn)	0	0	i	3	4	2	-5	-8
CN(N)c1nc(C(F)(F)F)nc2ccccc12	-9	-4	i	2	-13	26	-16	-4
CCOc1ccc(NS(=O)(=O)c2cc(NC(=O)CCNC(=O)c3ccco3)ccc2OC)cc1	0	1	.	.	.	-48	-11	.
CC1(C)CC(CCC(=O)NC(=S)Nc2ccccc2Cl)C(=O)O1 (stereo not drawn)	0	1	i	-18	-17	9	.	-11
COc1ccc(OC)c(/C=N\NC(=O)CSc2nnc(CCCc3ccc(OC)c(C)c3)o2)c1	6	2	i	-11	0	.	-3	-15
O=S(=O)(Nc1ccc(O)c(NS(=O)(=O)c2ccccc2)c1)c1ccccc1	2	-2	i	-1	-9	.	-12	36
Cc1cccc(NC2CNC(=O)NC2=O)c1 (stereo not drawn)	-1	4	.	.	.	-15	-25	.
CCNc1nc(NCC)nc(Oc2ccc(C(=O)OC)cc2)n1	0	2	i	12	-10	9	-8	-5
O=C1/C(=C/c2cccnc2)SC(=S)N1c1ccc(F)cc1	5	-4	i	-5	2	.	.	3
CC(C)c1nnc(NC(=O)Cc2ccc(Br)cc2)s1	2	5	i	-3	-8	-31	.	-5
COc1ccc(OCCCC(=O)Nc2cc([N+](=O)[O-])ccc2C)cc1	.	.	i	-2	2	.	-8	-7
CC(=O)c1ccc(OCc2cc(C(=O)N3CCCCCCC3)no2)cc1	7	-13	i	13	-9	8	-10	20
CC(=O)Nc1ccc(NS(=O)(=O)c2cc(C)sc2C)cc1	-4	-3	i	-6	-2	-53	.	0
CCCCc1c(O)c2ccccc2[nH]c1=O	2	1	i	2	-9	-15	-3	-18
Cc1ccc(O)c(-c2cc3ccccc3[nH]2)c1	5	2	i	-2	-3	-163	-12	44
Cc1cccc(-c2nc3ccccc3c3nncn23)c1	-7	-5	i	-3	-7	-9	.	5
O=C1OC2(CCCCC2)OC(=O)C1=CNc1nc2ccccc2s1	1	2	i	14	-8	-16	-7	-6
CCOC(=O)CNC(=O)Cn1cnc2sc(C)c(S(=O)(=O)N3CCC(C)CC3)c2c1=O	0	2	.	11	-9	27	.	-12
COc1ccc(S(=O)(=O)n2oc(=O)cc2-c2ccccc2)cc1	-7	2	i	21	3	-84	-59	.
Cn1c(/C(C#N)=N/O)nc2ccccc21	4	7	i	-6	-1	.	-10	-5
O=C(CSc1nnnn1Cc1ccccc1)N1CCN(c2ccccc2)CC1	-7	-2	i	43	-7	-30	-12	-15
C=CCc1cc(C=O)cc(OCC)c1OCc1ccc(Cl)cc1	-3	-2	i	3	-12	4	-15	21
Cc1ccccc1OCC(=O)Nc1ccccc1-c1ccccc1	-7	-7	i	.	.	28	.	37
Nc1cc(=O)nc(SCC(=O)Nc2cccc3ccccc23)n1CCc1ccccc1	-2	-3	i	10	-13	-32	.	-2
COc1ccc(Nc2cc(C)nc3ncnn23)c(OC)c1	1	3	i	-8	-13	8	-2	-12
CC(C)COc1ccc(C(=O)Nc2ccc(NC(=O)c3ccco3)cc2)cc1	1	-2	i	7	19	.	1	.
Cc1cc(C)cc(NC(=O)Cn2ncn3c(cc4ccccc43)c2=O)c1	-4	1	i	6	-4	.	-11	15
CC(=O)N1N=C(c2ccccc2)CC1c1ccc2c(c1)OCO2 (stereo not drawn)	-1	-2	i	0	-9	-14	9	1
Cc1ccn2c(NC(=O)c3cccs3)c(-c3ccccc3)nc2c1	-1	5	i	-6	-11	.	.	-11
C/C(=C\c1ccc(Br)cc1)C(=O)c1c(C)cc(C)[nH]c1=O	-5	-5	i	2	-6	-2	2	-13
CNC(=O)c1cccc2nc3ccccc3nc12	0	6	i	0	-1	15	-16	-1
Cc1ccc(NC(=O)c2noc3c2CCc2ccccc2-3)cc1	11	5	i	-3	-2	-46	-16	4
CC(C)(CO)NC12CC3CC(CC(C3)C1)C2	4	4	i	30	-11	1	-14	8
COc1ccc(NC(=O)c2cccc(Oc3ccc([N+](=O)[O-])cc3Cl)c2)cc1	2	-19	i	-10	2	-5	.	48
CC[C@@]12C(=O)N(c3cccc(Cl)c3)C(=O)N1[C@H](c1ccc(Br)cc1)[C@@H]1C(=O)N(C(C)(C)C)C(=O)[C@@H]12	2	-5	i	.	.	84*	-5	17
O=C(NNC(=O)c1cccc(Cl)c1)NNC(=O)c1cccc(Cl)c1	13	0	.	.	.	13	-17	-17
Cc1n[nH]c(=O)c2c(NC(=O)CSc3nnc(C4CC4)n3C)oc(C)c12	1	7	i	.	.	9	.	-21
COc1ccccc1N(CC(=O)NCc1ccccn1)S(C)(=O)=O	7	5	i	6	14	.	-30	8
CC1Cc2cc(S(=O)(=O)N3CCCC(C(=O)N4CCCCC4)C3)ccc2N1C(=O)C1CC1 (stereo not drawn)	1	-4	i	5	-2	-2	-13	-3
CCCc1nn(C)c(C(=O)Nc2ccc3ccccc3c2)c1Cl	0	-1	i	-1	0	-16	-16	4
COc1ccc(CCNC(=O)Cc2nn(C)c(=O)c3ccccc23)cc1OC	0	-5	i	-5	-17	6	6	7
Cc1ccc2nc(NC(=O)c3ccc(NS(=O)(=O)c4cccs4)cc3)sc2c1	5	4	i	-5	-7	22	.	104*
CCCOc1ccc2oc(=O)c3c(c2c1)CCCN3C(=O)CN(C)Cc1ccccc1	4	-6	i	-10	0	.	-14	-3
Cc1ccc(NC(=O)C2CCN(S(=O)(=O)c3cccs3)CC2)c(O)c1	0	-5	i	3	-1	-18	-12	-11
Cc1nnc(SCC(=O)NC(C)c2ccccc2)[nH]c1=O (stereo not drawn)	4	7	i	-2	0	.	-1	-4
C[C@@H]1CN([C@@H](C)CO)S(=O)(=O)c2ccc(C#Cc3cccc(F)c3)cc2O[C@@H]1CN(C)CC1CC1	2	0	.	.	.	-6	-2&11	.
CN1CCN(NC(=O)c2ccc(COc3ccccc3Br)o2)CC1	-1	2	i	11	0	-15	.	.
Continuation:
SMILES	MT1-MMP act inh	MT1-MMP act inh RFP	Rce1 inh	PABP polyA inh	eIF4H inh	Env fusion inh	Yeast UUG start	CSC inhib	others
CCCc1cc(=O)[nH]c(SCc2cccc(C)c2)n1	4	2	i	-6	-7	-20	-10	14
CC1=C(C#N)C(=O)NC(=O)/C1=C\c1ccc(-c2cc(C)c(C)cc2[N+](=O)[O-])o1	1	7	i	?	?	-5	8	.
COc1ccc(COCCN2CCN(S(=O)(=O)c3ccccc3)CCC2=O)cc1	6	-3	i	-2	3	-14	-18	2
COc1cc(CNc2ccc(N3CCCCC3)cc2)ccc1OCC(=O)NC(C)(C)C	19	22	i	-8	-10	10	-25	-4
COc1ccc(-c2[nH]ncc2-c2ccc3c(c2)OCCO3)c(O)c1	-11	-7	i	-8	-8	.	.	-11
COc1ccccc1CC(=O)NC1CCCCCC1	0	0	i	5	-2	9	2	-12
COC(=O)c1c(C)c(OC(=O)c2c(C)cc(O)c(C=O)c2O)cc(C)c1O	-2	0	i	.	.	.	1	0
O=c1[nH]c2cc(C(F)(F)F)ccc2n1-c1cc(C(F)(F)F)ccc1O	0	-6	.	.	.	25	2	3
CC(=O)Nc1ccc(N2C(C(C)=O)=NN(c3ccc(Cl)cc3)C2c2sccc2C)cc1 (stereo not drawn)	-2	-3	.	-4	1	-3	-11	-1
Cc1ccc(S(=O)(=O)c2c[nH]c3ccc(Cl)cc3c2=O)cc1	1	1	i	4	-9	7	.	-5
CCOc1cc(/C=N\NC(=O)c2c(C)nc3ccccn23)ccc1O	1	3	i	-7	-16	2	-10	-13
CCOC(=O)N1CCN(C(=O)COC(=O)c2cc(Cl)cc(Cl)c2)CC1	0	0	.	.	.	-5	9	-25
O=C(Nc1cscc1S(=O)(=O)c1ccccc1)c1ccccc1Cl	1	-1	i	-6	-16	8	-10	11
COc1ccc2[nH]c(O)c(N=NC(=O)c3ccc(NS(=O)(=O)c4cccs4)cc3)c2c1	9	4	.	.	.	-32	-4	.
COc1ccc(N(CC(O)CN2CCOCC2)S(=O)(=O)c2ccccc2)cc1 (stereo not drawn)	-2	4	i	10	0	-12	-14	-4
Cc1cc(C)c(S(=O)(=O)Nc2ccccc2C(=O)N2CCCC2)c(C)c1	-6	-2	i	4	-1	0	-16	5
CC(=O)c1c(C)[nH]c(C(=O)OCC(=O)Nc2cc(S(=O)(=O)N3CCCC3)ccc2Cl)c1C	-8	-24	i	-9	-12	38	-11	-11
O=C(CN1C(=O)c2ccc([N+](=O)[O-])cc2C1=O)Nc1nnc(C2CC2)s1	-7	1	.	.	.	16	.	-20
CCOC(=O)C(=NCCOC)NNc1cc(Cl)ccc1Cl	-3	-2	i	0	-5	6	.	9
